KCNQ2 block: KCNQ2 potassium channel inhibitors, primary screen, cell-based, CHO-K1, FluxOR thallium flux, B-score (AID 2156) | B-score at 10 µM | actives 1.1% (n = 310,000) | O88943 | 20 min; stronger effect = lower value; only compounds with negative scores are shown here; some inactives read as strong as hits;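 active means fluorescence ratio B-score at most minus 3 library SDs, with starting brightness B-score within 2 library SDs, cut at about -5.5 in these data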
Target sequence (O88943 whole entry, looked up): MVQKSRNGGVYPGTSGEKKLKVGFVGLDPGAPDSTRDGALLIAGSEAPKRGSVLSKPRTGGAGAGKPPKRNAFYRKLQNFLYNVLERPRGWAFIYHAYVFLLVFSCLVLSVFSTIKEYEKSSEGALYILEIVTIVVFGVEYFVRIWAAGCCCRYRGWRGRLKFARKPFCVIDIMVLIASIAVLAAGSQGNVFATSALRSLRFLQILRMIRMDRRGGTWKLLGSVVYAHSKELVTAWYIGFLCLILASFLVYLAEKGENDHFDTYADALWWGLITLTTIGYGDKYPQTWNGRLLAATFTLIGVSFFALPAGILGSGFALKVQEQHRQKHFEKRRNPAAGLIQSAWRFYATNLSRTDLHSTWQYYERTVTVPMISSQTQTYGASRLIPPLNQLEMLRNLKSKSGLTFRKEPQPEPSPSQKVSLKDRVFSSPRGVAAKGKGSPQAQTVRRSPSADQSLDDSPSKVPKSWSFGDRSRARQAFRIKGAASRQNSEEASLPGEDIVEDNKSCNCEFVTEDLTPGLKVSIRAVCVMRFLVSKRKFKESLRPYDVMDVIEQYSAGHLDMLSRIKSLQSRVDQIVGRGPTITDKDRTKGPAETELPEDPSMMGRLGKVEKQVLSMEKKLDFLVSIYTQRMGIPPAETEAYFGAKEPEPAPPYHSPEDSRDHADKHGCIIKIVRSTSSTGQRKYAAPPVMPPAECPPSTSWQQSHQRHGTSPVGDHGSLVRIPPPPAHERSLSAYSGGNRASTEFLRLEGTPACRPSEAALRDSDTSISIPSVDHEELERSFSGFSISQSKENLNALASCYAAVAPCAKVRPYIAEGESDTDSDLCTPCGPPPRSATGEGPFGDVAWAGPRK
KCNQ2 block baseline: recorded beside KCNQ2 block, whose call it bears; B-score; measured here: initial fluorescence intensity artifact check;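 brightness before thallium and not channel activity; 0 = typical well and far values either way flag optical interference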
Numbers without * were called inactive; i = inactive. These rows are one share of the data (hit frequency here may not be typical).

KCNQ2 block baseline,KCNQ2 block,canonical_smiles
0.05,i,NS(=O)(=O)c1ccc(NC(=O)COC(=O)c2cc3ccccc3oc2=O)cc1
0.62,i,O=C(Nc1ccc(NC(=S)NC(=O)c2ccccc2F)cc1)c1cccs1
-1.8,i,CCCOC1CCCN(C(=O)c2ccc(OC3CCN(C(=O)COC)CC3)cc2)C1 (configuration not stated)
1.6,i,CC1CCN(c2nc(-c3ccccc3O)nc3ccccc23)CC1
-1,i,O=S(=O)(c1ccc(NC(=S)NCCC(c2ccccc2)c2ccccc2)cc1)N1CCOCC1
-0.53,i,COc1cc(OC)cc(C(=O)OC/C(O)=C(\C#N)c2nc3ccccc3[nH]2)c1
2.5,i,CCOC(=O)c1sc(=S)n(C)c1NC(=O)c1ccccc1
2.4,i,Cc1cc(C)c2c(=O)n(CC(=O)Nc3cccc(F)c3)sc2n1
-1.4,i,CN1C(=O)CC[C@H]1c1cccnc1
1.2,i,CC(/C=C1\SC(=S)N(NC(=O)c2ccc(O)cc2)C1=O)=C\c1ccccc1
-1.9,i,CC(=O)N1CCOc2ccc(S(=O)(=O)NCc3ccccc3Cl)cc21
-1.4*,-10*,CCOC(=O)C(C)Sc1nc2ccccc2c(=O)n1CC1CCCCC1 (configuration not stated)

Overlap with the part before: seven entries, then new ones.
KCNQ2 block baseline,KCNQ2 block,canonical_smiles
-0.53,i,COc1cc(OC)cc(C(=O)OC/C(O)=C(\C#N)c2nc3ccccc3[nH]2)c1
2.5,i,CCOC(=O)c1sc(=S)n(C)c1NC(=O)c1ccccc1
2.4,i,Cc1cc(C)c2c(=O)n(CC(=O)Nc3cccc(F)c3)sc2n1
-1.4,i,CN1C(=O)CC[C@H]1c1cccnc1
1.2,i,CC(/C=C1\SC(=S)N(NC(=O)c2ccc(O)cc2)C1=O)=C\c1ccccc1
-1.9,i,CC(=O)N1CCOc2ccc(S(=O)(=O)NCc3ccccc3Cl)cc21
-1.4*,-10*,CCOC(=O)C(C)Sc1nc2ccccc2c(=O)n1CC1CCCCC1 (configuration not stated)
0.91,i,CCc1nnc(NC(=O)CCC(=O)NC2CCCc3ccccc32)s1 (configuration not stated)
-1.4,i,COc1ccc(NC(C)=O)cc1S(=O)(=O)Nc1ccc(C(=O)N2CCCC2)cc1
-0.19,i,Cc1ccc(NC(=O)c2ccc(S(=O)(=O)N3CCCC3)cc2)cc1
-1.5,i,O=C(Nc1cccc(O)c1)C1CCCN1C(=O)OCc1ccccc1 (configuration not stated)
-0.14,i,O=C(NCCc1ccccc1F)[C@@H]1CSC2c3ccccc3C(=O)N21 (some centres not stated)
1.3,i,Cc1c(C(=O)CN2CCN(c3ccccc3)CC2)c2ccccc2n1C
-0.81,i,COCCNC(C(=O)Nc1ccc([N+](=O)[O-])cc1Br)c1ccccc1 (configuration not stated)
5.2,i,CCOc1nc(OCC)c2cnn(C)c2n1
-0.56,i,Cc1ccc(/C(O)=C2\C(=O)C(=O)N(Cc3cccnc3)C2c2ccccc2[N+](=O)[O-])cc1 (configuration not stated)
-0.08,i,Cc1ccc(/C=C/c2nnc(-c3cccc(C)c3)o2)cc1
0.83,i,CCn1c(=O)cc(SCC(=O)N2CCN(c3ccccn3)CC2)c2ccccc21
0.57,i,CN1C(=O)N(C)c2cccc3cccc1c23
0.25,i,C=CCn1c(SCc2ccc(C(=O)Nc3ccccc3)cc2)nnc1-c1ccccc1
0.77,i,O=C(COc1ccc(Cl)cc1)NCc1nnc(SCC(=O)Nc2ccc(F)cc2F)o1
0.76,i,COc1ccc(NC(=O)N(Cc2cc3ccc(OC)cc3[nH]c2=O)CC2CCCO2)cc1 (configuration not stated)
-1.1,i,CCOc1ccccc1NC(=O)C(Sc1ccccc1)c1ccccc1 (configuration not stated)
0.03,i,N#C/C(C(=O)Oc1ccccc1)=C1/Nc2ccccc2-c2ccccc21
-0.1,i,CCOC(=O)c1cnn(-c2ccccc2)c1-c1ccncc1
0.82,i,O=C(Nc1ccc(S(=O)(=O)Nc2ncccn2)cc1)c1ccc2ncsc2c1
-0.03,i,O=C(Nc1ccc(N2CCN(C(=O)c3ccc(Cl)cc3)CC2)cc1)c1ccc2c(c1)OCCO2
1.6,i,Cc1ccccc1-n1c(C)nnc1SCC(=O)N(C)C1CCS(=O)(=O)C1 (configuration not stated)
1.8,i,O=C(CCc1ccc(O)cc1)c1c(O)cc(O)cc1O[C@@H]1O[C@H](CO)[C@@H](O)[C@H](O)[C@H]1O
-0.39,i,Cc1ccc(C(=O)N2CCCC(N3CCN(c4ccccc4F)CC3)C2)s1 (configuration not stated)
-2.3,i,Cc1ccc2cc(CNC(C)(C)C)c(=O)[nH]c2c1
-1.2,i,COC(=O)/C=c1/s/c(=C(/C#N)C(=O)N2CCCCC2)n(-c2ccccc2)c1=O
-0.01,i,CCC1Oc2ccc(C)cc2N(CC(=O)NCCN2CCCCCC2)C1=O (configuration not stated)
-1.1*,-6.3*,COc1ccc(N2CCN(c3nc4ccccc4n3CC(=O)c3ccccc3)CC2)cc1
-0.65,i,Cc1cccc(N(CC(=O)NCc2ccc(F)cc2)C(=O)c2ccco2)c1
-0.73,i,Cc1ccc(S(=O)(=O)N2CCN(c3ccc([N+](=O)[O-])c(NCCN4CCOCC4)c3)CC2)cc1
-1,i,Cc1ccc(-c2nn3c(C)nnc3c3ccccc23)cc1S(=O)(=O)NCCN1CCOCC1
0.29,i,COc1ccc(NC(=O)CSc2nc(=O)n(CCN(C)C)c3c2CCCC3)cc1
-1.3,i,CC1(Cc2ccc3c(c2)OCO3)NC(=O)NC1=O (configuration not stated)
1.3,i,C/C(=N\N(C)C)c1ccc(OCCOc2ccc([N+](=O)[O-])cc2)cc1
2.3,i,Cc1noc(C)c1COc1ccc(C(=O)OCC(=O)Nc2ccc3ccccc3c2)cc1
1.8,i,Cc1nnc(N/N=C/c2c(Cl)cccc2Cl)n1N
-0.05,i,N#CCCN(C(=O)COc1ccc(F)cc1Br)c1ccccc1F
-1.9,i,O=C(O)c1cccc(S(=O)(=O)Nc2ccc(OCc3ccccc3)cc2)c1
0.38,i,O=C(Nc1cccc(S(=O)(=O)N2CCOCC2)c1)c1cc2ccccc2o1
-1.6,i,O=C1/C(=C/c2cccnc2)CCc2c1[nH]c1ccccc21
-2.1,i,O=C(Nc1ccccc1N1CCOCC1)c1ccccc1NS(=O)(=O)c1ccc(F)c(F)c1
-0.02,i,COc1ccc(S(=O)(=O)N2Cc3ccccc3CC2C(=O)Nc2ccc(O)cc2)cc1OC (configuration not stated)
1.6,i,COc1ccc(NC(=O)c2c[nH]c(=O)n(-c3ccc(C)c(C)c3)c2=O)cc1OC
0.69,i,C/C(=N\NC(=O)CCn1nnc2ccccc21)c1cccs1
-0.01,i,Cn1c(CNc2ccc(Cl)cc2)nc2ccccc21
-1.3,i,Cc1cc2nc(-c3ccc(NC(=O)C(C)C)cc3)oc2cc1C
0.03,i,COc1ccc(CNC(=O)[C@H](C)NC(=O)[C@@H]2Cc3ccccc3CN2)cc1
-1.4,i,Clc1ccc(-c2c[n+](Cc3ccc(Cl)cc3Cl)c3n2CCCCC3)cc1
1.1,i,c1ccc(C2[C@H]3CN(CC4CCCCC4)[C@H](c4ccccc4)C34CC2(c2ccccc2)C4)cc1 (some centres not stated)

Shown field by field: part of the list above.
> Cn1c(CNc2ccc(Cl)cc2)nc2ccccc21
  KCNQ2 block baseline = -0.01	KCNQ2 block = i
> Cc1cc2nc(-c3ccc(NC(=O)C(C)C)cc3)oc2cc1C
  KCNQ2 block baseline = -1.3	KCNQ2 block = i
> COc1ccc(CNC(=O)[C@H](C)NC(=O)[C@@H]2Cc3ccccc3CN2)cc1
  KCNQ2 block baseline = 0.03	KCNQ2 block = i
> Clc1ccc(-c2c[n+](Cc3ccc(Cl)cc3Cl)c3n2CCCCC3)cc1
  KCNQ2 block baseline = -1.4	KCNQ2 block = i

Next part:
KCNQ2 block baseline,KCNQ2 block,canonical_smiles
-0.16,i,Cc1nn2c(N)c(-c3ccccc3)cnc2c1-c1ccc(Cl)cc1
0.1,i,C=C(C)c1cccc(C(C)(C)NC(=O)N2CCN(c3ccccc3)CC2)c1
-0.37,i,O=C1c2cccc3cccc(c23)C(=O)N1OS(=O)(=O)c1ccccc1
-0.06,i,CCc1ccccc1N(CC(=O)NCC1CCCO1)C(=O)CCC(=O)Nc1nccs1 (configuration not stated)
1.1,i,CCOC(=O)c1cc2c(s1)-c1c(C)cccc1OC2
1.9,i,CN1CCN(c2nc(-c3ccccc3)ncc2S(C)(=O)=O)CC1
0.18,i,C/C(=N\NC(=O)COc1cccc(C)c1)c1ccc2ccccc2c1O
-0.2,i,Cc1cc(Oc2ccc(-c3ccccc3)cc2)n2ncnc2n1
0.19,i,COc1ccc(CCN(C)C/C=C/c2ccccc2)cc1OC
0.74,i,Cc1cc(C)cc(NC(=O)C2C3C=CC(O3)C2C(=O)O)c1 (configuration not stated)
-1.2,i,COc1ccc(CCN2C(=O)C(Oc3ccccc3C)C2c2ccc3c(c2)OCO3)cc1OC (configuration not stated)
1.1,i,O=C(CNC(=O)c1ccco1)NCC(=O)OCc1ccccc1Br
1.9,i,COc1ccc(Nc2nc(-c3sc(C)nc3C)cs2)c(OC)c1
-0.28,i,COc1ccc(-c2noc(-c3cccs3)n2)cc1OC
0.01,i,CCN1C(=O)CC(C(=O)Nc2ccc(F)cc2)SC1=Nc1cccc(OC)c1 (configuration not stated)
-0.47,i,COC(=O)c1cc(S(=O)(=O)NCC2CCN(Cc3ccc(F)cc3)CC2)c[nH]1
-1.4,i,CN1CCN(c2cc(=O)n(C3CCCCC3)c(=O)[nH]2)CC1
-1.1,i,COc1ccc(N(C)C(=O)C2CCN(S(=O)(=O)c3cccc4nsnc34)CC2)cc1
-0.39,i,Nc1c(-c2ccccc2)c(CSc2nc3ccccc3[nH]2)nn1-c1ccc(Cl)cc1
-0.29*,-8.5*,CC(=O)c1cccc(NC(=O)Nc2ccc3c(c2)N(C)C(=O)CS3)c1
-1.3,i,CC(C)CCNC(=O)C(=O)NCc1ccccc1
-0.72,i,CCOC(=O)C1CCN(C(=O)C2CCCCC2)CC1
0.88,i,Cc1nc(CCNC(=O)CC2C(=O)NCCN2Cc2ccccc2)nc2c1CCC2 (configuration not stated)
1.5*,-5.6*,CC(C)C[C@H]1CN=C(Nc2ccccc2)N1CCCC1CCCCC1
0.36,i,COc1cccc(OCc2cc(C(=O)N(C)C3CCOCC3)no2)c1
0.14,i,Cc1ccc(C(=O)N2CC(=O)Nc3ccc(F)cc3C2c2ccccc2)cc1[N+](=O)[O-] (configuration not stated)
1.3,i,Nc1cc2nc[nH]c2cc1N
1.2,i,CCOc1ccc(-c2nnc(-c3ccncc3)o2)cc1OCC
-0.85,i,CCC(=O)Nc1ccc2c(c1)ncn2-c1ccccc1
-3.7,i,COc1cc(C(F)(F)F)c(C(=O)N(C)Cc2cc(Cl)cc(Cl)c2)cn1
0.12,i,COc1cccc(-c2csc(NNC(=O)c3cccs3)n2)c1
0.31,i,Fc1ccc(NC(=S)NCCc2ccc(Cl)cc2)cc1
0.72,i,Cc1nn(C)cc1C(C(=O)NC1CCCCC1)N(C(=O)Cn1nnc2ccccc21)c1ccc(F)cc1 (configuration not stated)
-0.18,i,CC(C)Oc1ccccc1-c1nc(SCC(=O)O)n[nH]1
0.77,i,CCOc1ccc(-n2c(=O)c3sccc3n(Cc3ccc(C)cc3)c2=O)cc1
0.81,i,COc1ccc(NC(=S)NNC(=O)c2ccc(S(=O)(=O)N3CCOCC3)cc2)cc1
0.61,i,O=C1/C(=C/c2ccccn2)SC(=S)N1c1cccc(O)c1
-0.45*,-9.1*,Cc1nc2ccccc2c(=O)n1/N=C/c1cn(-c2ccccc2)nc1-c1cccs1
2.7,i,O=C(NCc1ccco1)C1CN(S(=O)(=O)c2ccccc2)CCN1S(=O)(=O)c1ccccc1 (configuration not stated)
0.39,i,COc1ccc(CCN2CC(C#N)=C3c4cc(OC)c(OC)cc4CCN3C2)cc1OC
2.2,i,CN1CCN(CCC2Oc3cc([N+](=O)[O-])ccc3NC2=O)CC1 (configuration not stated)
-1.3,i,Cc1cccc2cc(C#N)c(SCC(=O)N3CCC(C)CC3)nc12
3.4,i,Cn1ncc(Cl)c1C(=O)Nc1ccc2c(c1)CCC2
0.01,i,CCN(CC)C(=O)CCC(=O)Nc1ccc(C(=O)OC)cc1
-1.9,i,CCOC(=O)c1ccc(Nc2c(CC)c(C)nc3ncnn23)cc1
0.24,i,O=C(NC(=S)Nc1cc(Cl)ccc1N1CCOCC1)c1ccc(-c2cccc(Cl)c2)o1
1.1,i,CCOC(=O)C1(Cc2cccc(F)c2)CCN(C(=O)Cc2cccnc2)CC1
-0.43,i,Nc1nonc1-n1nnc(C(=O)N/N=C/c2ccc(OCc3ccccc3)cc2)c1CN1CCCCC1
-0.53,i,CCc1nn(CC(=O)NCc2cccnc2)c(=O)c2cc3occc3n12
-2.4,i,CCOC(=O)[C@@H]1[C@H]2COc3ccc(Br)cc3[C@@H]2N2C(=O)N(c3cccc(F)c3)C(=O)[C@]12C
-1.1,i,CCSc1ccccc1C(=O)NCc1ccc(OC)cc1
0.28,i,O=C(Nc1cccc(Cl)c1)c1ccc2c(c1)OCCO2
0.16,i,CN(CC(=O)Nc1ccc(Cl)cc1)C1CCCCC1
-2.4,i,C/C(N)=C(/C#N)C(=O)CSc1nc2cc(Cl)ccc2c(=O)n1-c1ccc(C)cc1
1.4,i,O=C(N/N=C/c1cccnc1)C(=O)N1CCCCCC1
0.08,i,Cc1cccc(C)c1NC(=O)C1CCCN1C(=O)Nc1cccc(F)c1 (configuration not stated)

High-throughput results deposited in PubChem by Johns Hopkins Ion Channel Center.
